VDR inh – vitamin D3 receptor (human) inhibition. P11473. VDR-SRC2-3 peptide fluorescence polarization, 2 h. Potency, µM, inactives show max response, negative = inhibition, hits mostly inhibitors. 400,000 tested, 0.93% active; active = well fitted inhibition curve with a large enough effect; inconclusive = small, poorly fitted or top-dose-only effect, or another doubt; inactive = no such curve, though single readings can be large or run the other way; note: series mostly up to about 120 µM
Target sequence (P11473 whole entry, looked up): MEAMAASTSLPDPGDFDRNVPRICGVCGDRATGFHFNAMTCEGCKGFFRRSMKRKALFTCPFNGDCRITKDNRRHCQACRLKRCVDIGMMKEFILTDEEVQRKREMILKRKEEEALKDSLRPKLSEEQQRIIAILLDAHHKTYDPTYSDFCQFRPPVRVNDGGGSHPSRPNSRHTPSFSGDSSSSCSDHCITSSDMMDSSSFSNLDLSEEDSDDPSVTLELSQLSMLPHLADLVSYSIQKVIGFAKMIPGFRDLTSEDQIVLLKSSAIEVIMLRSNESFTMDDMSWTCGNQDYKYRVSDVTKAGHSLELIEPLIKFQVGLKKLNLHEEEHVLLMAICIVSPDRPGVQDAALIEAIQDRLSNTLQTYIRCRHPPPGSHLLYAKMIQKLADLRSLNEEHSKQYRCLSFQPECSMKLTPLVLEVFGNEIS
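Inhibition of the VDR/SRC2-3 peptide interaction is quantified by fluorescence polarization. Compounds (23 nl, pintool) incubate with the reagents for 2 hours at ambient room temperature.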
Starred values were filed as active, the others as inactive; ? = inconclusive; & = joins results of further samples. % is set by controls: 0 for no effect and ±100 for the full control effect; potency is the fitted concentration of half-maximal effect. Only part of the results is shown. The share of hits here may be higher or lower than overall.

mol	VDR inh
CN(C)S(=O)(=O)c1ccc(C(=O)NCc2ccc3[nH]c4c(c3c2)CCCC4)cc1	1%
CCOc1ccc(NC(=S)N(Cc2ccc(N(C)C)cc2)Cc2ccco2)cc1	3%
O=C(NNC1CC(=O)N(c2ccc(Br)cc2)C1=O)c1cccs1 (stereo not given)	-6%
COc1ccc(NC(=O)Nc2nnc(-c3ccncc3)s2)cc1	0%
CC(=O)Nc1ccn(-c2ccccc2)n1	-19%
Cc1cc(C)n(CCc2nc(-c3ccc(-c4ccccc4)cc3)cs2)n1	-14%
COC(=O)C1=C(C)NC(=S)NC1c1ccc(OCC(=O)N2CCCCC2)c(OC)c1 (stereo not given)	-13%
COc1ccccc1NC(=S)NCC1CCCCC1	?
O=C(N/N=C/c1c(O)ccc2ccccc12)c1cccnc1	-11%
O=C(NC1CCCCCC1)c1cc(-c2ccccn2)nc2ccccc12	-11%
S=c1sscc1-c1ccccc1	-7%
CCN(CC)S(=O)(=O)c1ccc(NCCCn2ccnc2)c([N+](=O)[O-])c1	-11%
C1=C(c2cccc3ccccc23)N2CCN=C2S1	-5%
Cc1cccc(C(=O)NC(=S)N2CCN(C(=S)NC(=O)c3cccc(C)c3)CC2)c1	-14%
COc1ccc2c(c1)c1nc3n(c(=O)c1n2CC(=O)Nc1ccccc1)CCCS3	-22%
Cc1ccn2c(CNCc3cnn(C)c3)c(C(=O)N3CCCCCC3)nc2c1	-5%
CCN(CC)CCn1c(=S)[nH]c2ccccc2c1=O	3%
Cc1cc2nc(-c3ccc[nH]c3=O)n(Cc3cccc(F)c3)c2cc1C	?
O=C(COC(=O)C12CC3CC(CC(O)(C3)C1)C2)Nc1ccc(Br)cc1F	6%
O=c1cc(N2CCN(c3ccccc3)CC2)[nH]c(=O)n1-c1ccccc1Cl	-9%
COc1ccccc1N1CCN(C(=O)c2ccoc2C)CC1	1%
CC(=O)CCC(=O)O	6%
CCOc1ccc(NC(=S)NCCCN2CCN(c3ccc(OC)cc3)CC2)cc1	-3%
COc1ccccc1N1CCN(C(=O)CSc2nnc3n2C(C)(C)Cc2ccccc2-3)CC1	17%
CCOc1ccccc1CNC(=O)CCCn1c(=O)c2cccn2c2cccnc21	-7%
COc1ccc(-c2cnc3ccccc3n2)cc1NC(=O)CNC(=O)c1ccccc1	-20%
Cc1ccc(C)c(S(=O)(=O)NC(C)CCc2ccccc2)c1 (stereo not given)	8%
CCOC(=O)c1cc(C(C)C)sc1NC(=O)COC(=O)CCS(=O)(=O)c1ccccc1	-5%
CCN(CC)c1ccc(CN(C(=O)c2cc(OC)c(OC)c(OC)c2)C2CCS(=O)(=O)C2)cc1 (stereo not given)	-7%
COc1cc(CNCCSc2nnnn2C)ccc1OCc1ccccc1C	-10%
O=C(NNC1CC(=O)N(c2ccc(Br)cc2)C1=O)c1ccco1 (stereo not given)	-11%
O=C(Nc1cccc(S(=O)(=O)N2CCCC2)c1)c1ccccc1OC(F)F	-7%
ClCc1nnc(-c2ccccc2)o1	-18%
C/C(=N\Nc1ccc([N+](=O)[O-])cc1)c1ccc(C#N)cc1	9%
COc1ccc(NC(=O)CC(Cc2ccc(Cl)cc2)C(=O)O)cc1 (stereo not given)	-19%
CCOc1ccc(CCNC(=O)COC(=O)/C=C/c2ccccc2OC)cc1OCC	0%
O=C(Nc1ccc(Cl)cn1)c1cc(S(=O)(=O)N2CCCCC2)ccc1Cl	8%
Cc1c(NC(=O)CSc2nnnn2-c2ccc(F)cc2)c(=O)n(-c2ccccc2)n1C	-9%
O=C1c2ccccc2C(=O)N1N(c1ccccc1)c1ccccc1	-1%
CNC(=S)N(CCc1ccc(OC)c(OC)c1)Cc1cc2c(C)cc(C)cc2[nH]c1=O	-6%
COc1cnc(SCc2ccc(Cl)cc2Cl)nc1Cl	1%
N[C@]1(C(=O)O)CCc2cc(P(=O)(O)O)ccc21	0%
C=CCNC(=O)c1ccc(-c2cccc([N+](=O)[O-])c2)o1	4%
Cc1csc2nc(O)c(C(=O)NC3CCCCC3)c(=O)n12	-15%
CCN(CC)c1nc(N)c([N+](=O)[O-])c(NCCO)n1	-12%
CCN(CC)C(=O)CN(c1ccc2c(c1)OCO2)S(C)(=O)=O	-18%
Cc1c(C(=O)OCC(=O)Nc2ccc3c(c2)OCO3)cccc1[N+](=O)[O-]	-15%
COc1ccc2c3n([n+]([O-])c2c1)CCN=C3c1ccc(C)cc1	-17%
Cc1ccc(S(=O)(=O)N2CCC(C(=O)O)CC2)cc1	4%
COC(=O)C1=C(C(C)=O)C(c2ccc(C(=O)OC)cc2)n2nnnc2N1 (stereo not given)	1%

(further entries)
molecule | VDR inh
COc1ccc(C2CC(c3cccs3)=NN2S(C)(=O)=O)cc1OC (stereo not given) | -10%
CCCN(CCC)CC(=O)Nc1cccc2c1OCO2 | 5%
Cc1ccc2c(c1)N(CC(=O)NC1CCCc3ccccc31)C(=O)CO2 (stereo not given) | -12%
CCOc1c2c(nc3ccc(Cl)cc13)CCC2 | -2%
Cc1ccc(-c2csc(NC(=O)c3ccccc3Cl)c2C(=O)O)cc1 | 18%
CSC(SC)=C(C#N)C(=O)c1ccccc1 | ?
CN(C1CCCCC1)S(=O)(=O)c1ccc(SCC(=O)C(C)(C)C)nc1 | -18%
COC(=O)c1sccc1NC(=O)Nc1ccc(C)cc1C | -10%
Cc1ccc(CN(C)Cc2cc(=O)oc3cc(C)c(Cl)cc23)cc1 | 15%
CCC(=O)N1CCc2cc(S(=O)(=O)CCC(=O)N3CCN(c4cccc(C)c4C)CC3)ccc21 | -7%
COC(=O)c1cccc(NC(=O)Cc2ccsc2)c1 | -19%
O=C(OCCN1CCOCC1)c1cccc(F)c1 | 3%
CS(=O)(=O)c1ccc(N2CCN(C3CC(=O)NC3=O)CC2)cc1 (stereo not given) | 13%
Cn1c(=O)c2c(nc(N3CCCCC3)n2C)n(C)c1=O | 2%
CN(C)CCNc1c2c(c(C#N)c3nc4ccccc4n13)CCCC2 | 10%
COc1ccc(S(=O)(=O)NCc2nc3nc(C)cc(C)n3n2)cc1OC | -4%&5%
C=CCN(CC=C)C(=S)NC(=O)c1ccc(OC)c(Br)c1 | -13%
O=C(NCc1cccnc1)c1ccc(NC(=O)c2cccc([N+](=O)[O-])c2)cc1 | -18%
O=C(CNS(=O)(=O)c1ccccc1)NCC(=O)N1CCCCC1 | -11%
CN1CCN(S(=O)(=O)c2ccc(-c3ccc(Cl)cc3)cc2)CC1 | 8%
CCN(CCCNC(=O)C1CCN(C(=O)c2cc3sccc3n2C)CC1)Cc1ccccc1 | -7%
CCC(CO)Oc1cc(NC(=O)c2cccc(OC)c2)c2ncn(C(C)C)c2c1 (stereo not given) | -13%
CC(=O)c1c(C)nc(Nc2nc(C)c3cc(C)ccc3n2)nc1C | 15%
Nc1c(C(=O)NCc2cccs2)nnn1CC(=O)Nc1cccc(F)c1 | -1%
CC1=C(C(=O)OCc2ccccc2)C(c2ccc(N3CCOCC3)cc2)NC(=O)N1 (stereo not given) | 0%

Part of the list above, set out differently:
> CN(C)CCNc1c2c(c(C#N)c3nc4ccccc4n13)CCCC2
- VDR inh: 10%

> COC(=O)c1sccc1NC(=O)Nc1ccc(C)cc1C
- VDR inh: -10%

> CCOc1c2c(nc3ccc(Cl)cc13)CCC2
- VDR inh: -2%

Carrying on.
molecule | VDR inh
Cc1ccc(S(=O)(=O)N2CCN(S(=O)(=O)c3ccc(C)cc3)C2)cc1 | -11%
Cc1cccc(CSc2nc3ccncc3n2CC(=O)Nc2cc(C)cc(C)c2)c1 | -1%
CC12CCC(C(=O)N(c3ccc(Cl)cc3)C1=O)C2(C)C (stereo not given) | -13%
COc1ccc(CCN(C)C2CCCN(C(=O)c3ccnn3C)C2)cc1OC (stereo not given) | -8%
Cc1cc(N2CCC(C)CC2)nc2ccc(NC(=O)CCC(=O)N3CCN(c4ccccc4F)CC3)cc12 | -25%
COc1ccc(-c2nc(-c3cccc(C(F)(F)F)c3)no2)cc1OC | 0%
NS(=O)(=O)c1ccc(CCNc2nc(C(F)(F)F)nc3ccccc23)cc1 | -5%
O=C(COc1ccc(NS(=O)(=O)c2ccc(F)cc2)cc1)N1CCOCC1 | 9%
Cc1ccc(NC(=O)Cn2c(=O)ccc3cc(S(=O)(=O)N4CCCC4)ccc32)cc1N(C)C | -5%
CC(C)c1ccc(-c2nc3c([nH]2)c(=O)n(C)c(=O)n3C)cc1 | -3%
Cc1ccc(-n2c(C)nn(CC3CC3)c2=O)cc1 | -5%
CC1=C(c2ccc(C)c(C)c2)S(=O)(=O)N(Cc2ccc(C(=O)Nc3cc(F)ccc3F)cc2)C1=O | -4%
CCOC(=O)C1CCN(c2c(N3CCN(Cc4ccccc4)CC3)c(=O)c2=O)CC1 | -9%
COc1cccc(Nc2ncc3nc(-c4ccc(Cl)cc4)c(=O)n(C[C@H]4CCCO4)c3n2)c1 | 1%
Cc1cc(C)c(OCC(=O)N2CC=C(c3ccccc3)CC2)c(C)c1 | 6%
CCN(c1ccc2c(c1)OCO2)S(=O)(=O)c1cc(Br)cc2c1N(C(=O)C1CC1)CC2 | 14%
O=C(NNC(=O)c1cccnc1)NC12CC3CC(CC(C3)C1)C2 | 8%
CN(C)c1ccc(C(=O)C(O)c2ccc(C(C)(C)C)cc2)cc1 (stereo not given) | 0%
CCC(C)C(NC(=O)C1CCC(=O)N1C(=O)OCc1ccccc1)C(=O)NC(C(=O)N1CCCC1C(N)=O)C(C)CC (stereo not given) | 4%
Cc1cc(C)n(CC(=O)NNC(=O)CCCOc2ccc(Cl)c(C)c2)n1 | ?
COc1cc(/C=C/CO)ccc1O[C@@H]1O[C@H](CO)[C@@H](O)[C@H](O)[C@H]1O | -3%
CCOC(=O)C1=C(C)OC(N)=C(C#N)C1c1ccccc1 (stereo not given) | -23%
CC(C)Sc1nnc([C@H](Cc2c[nH]c3ccccc23)NC(=O)OC(C)(C)C)o1 | -8%
O=C1OCCN1C(=O)[C@H]1[C@H](c2ccc([N+](=O)[O-])cc2)C(c2ccc(F)cc2)=NN1c1ccccc1 | -12%&0%
Cc1nn(CCCC(=O)NCc2ccc(F)cc2)c(=O)c2c1sc1ccccc12 | 13%

Some of these compounds in order of the VDR inh value, descending:
molecule | VDR inh
O=C(Nc1ccc(Cl)cn1)c1cc(S(=O)(=O)N2CCCCC2)ccc1Cl | 8%
C1=C(c2cccc3ccccc23)N2CCN=C2S1 | -5%
O=C(NNC1CC(=O)N(c2ccc(Br)cc2)C1=O)c1cccs1 (stereo not given) | -6%
CC(C)Sc1nnc([C@H](Cc2c[nH]c3ccccc23)NC(=O)OC(C)(C)C)o1 | -8%
COc1ccc(C2CC(c3cccs3)=NN2S(C)(=O)=O)cc1OC (stereo not given) | -10%
Cc1ccc2c(c1)N(CC(=O)NC1CCCc3ccccc31)C(=O)CO2 (stereo not given) | -12%
CN(C1CCCCC1)S(=O)(=O)c1ccc(SCC(=O)C(C)(C)C)nc1 | -18%

Additional records
molecule | VDR inh
O=C(CSc1n[nH]c(=O)n1Cc1ccco1)N1CCOCC1 | -5%
COc1cccc(NC(=O)CN(C)S(=O)(=O)c2ccc(C)cc2)c1 | -6%
Cc1c(C)c2ccc(OCC(=O)N3CCN(c4cccc(Cl)c4)CC3)cc2oc1=O | -20%
Cc1ccc(NC(=O)c2c(-c3ccccc3Cl)noc2C)nc1 | -17%
O=C(Nc1cccc(-c2nc3ccccc3o2)c1)c1ccc(N2C(=O)C3C4C=CC(C4)C3C2=O)cc1 (stereo not given) | 0%
Cc1ccc(C(OC(=O)c2ccco2)C(=O)NC2CCCCC2)cc1 (stereo not given) | 14%
COc1ccc(-n2nnnc2C2CCN(S(=O)(=O)c3cccc(Cl)c3C)CC2)cc1 | 1%
O=C(O)COc1ccccc1/C=N/NC(=O)CN1CCN(S(=O)(=O)c2ccc(Br)cc2)CC1 | 18%
NC(=O)c1cc2cc(Cl)ccc2oc1=Nc1cccc(C(F)(F)F)c1 | 13%
Clc1ccccc1-c1nccc(NCc2ccccc2)n1 | ?
COc1ccc(-c2c(C)nn3c(N)c(-c4ccccc4)cnc23)cc1OC | -12%
C=CCOc1ccc(/C=C/C(=O)OCC(=O)NCC(=O)Nc2c(C)cc(C)cc2C)cc1 | -11%
CCC(C(=O)Nc1ccc(C(=O)N2CCCC2)cc1)c1ccccc1 (stereo not given) | -10%
CC1CCN(C(=O)C(C)NCc2ccc(F)cc2)CC1 (stereo not given) | ?
Clc1cccc2sc(N3CCOCC3)nc12 | -10%
COc1ccc(OCCC(=O)OCC(=O)NCc2ccccc2)cc1 | -9%
CCc1ccccc1NC(=O)CCNC(=O)Cn1ccc2ccccc2c1=O | -6%
Cc1ccccc1N1CC(C(=O)Nc2ccc(S(=O)(=O)NCC3CCCO3)cc2)CC1=O (stereo not given) | -16%
CCc1ccc(C(=O)c2cn(CC(=O)Nc3cc(F)ccc3F)c3nc(C)ccc3c2=O)cc1 | -10%
O=C1Nc2ccc(F)cc2C12SCCS2 | -4%
CCc1nnc(N2C(=O)c3cccc4cccc(c34)C2=O)s1 | 25%
CC1CCN(Cc2cnc(Cl)s2)CC1 | -6%
NCCn1c(=O)c(CCc2ccccc2)nc2cncnc21 | -14%
Cc1cc(C(=O)OCC(=O)NCc2cccs2)ccc1[N+](=O)[O-] | 2%
COc1ccc(OC)c(NC(=O)CCNS(=O)(=O)c2cccc3nonc23)c1 | -14%
CCOc1ccc(-c2c(C(=O)N/N=C/c3cccnc3)nnn2-c2nonc2N)cc1 | 7%
CCCNC(=O)N1CCN(S(=O)(=O)c2ccc(C)cc2)CC1 | 3%
CCn1c(SCC(=O)NC2CCCCC2)nc2c(c1=O)SCC2 | -11%
COc1cccc(/C=C/C(=O)OCC(=O)NCc2ccco2)c1 | -3%
